# Env fusion inh: inhibitors of HIV-1 Env-driven cell-cell fusion, primary screen, HeLa-JRFL effector, CEM21 target cells, luciferase | inhibition, % at 12.3 µM | AID 651610, 2012 | 360,000 compounds, 1.1% hits;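 active means mean replicate inhibition score of at least 50 and every replicate individually at or above 50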;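 further: 0% = plate neutral controls and 100% = maraviroc near 300 nM; one replicate is shown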
# UUG fidelity: modulators of yeast start codon fidelity, primary screen, whole organism, S. cerevisiae, single point, plate reader. activity score, % at 18.7 µM. S. cerevisiae UUG-firefly luciferase reporter, luminescence/redox ratio. 350,000 compounds, 0.13% hits;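 active means replicate mean at a twofold rise or more, about +100% in these data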;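 further: firefly luciferase made from a UUG start codon reports start codon fidelity; reporter light over untreated wells divided by growth signal over untreated wells; some hits fall short of that in this replicate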
# * hit, by the source's call; & = joins results of further samples; [ ] = dose if it differs, or a comment. A portion of the library; the hit share may differ from the screen's.
# Value order: Env fusion inh	UUG fidelity
> Cc1ccc(S(=O)(=O)N(C)C[C@@H]2Oc3ncc(-c4ccccc4)cc3C(=O)N([C@H](C)CO)C[C@@H]2C)cc1
    11&16[16.7 µM]	4&9
> C/C=C/c1ccc2c(c1)O[C@@H](CN(C)C(=O)C1CCOCC1)[C@H](C)CN([C@@H](C)CO)S2(=O)=O
    -1[16.7 µM]	7
> C[C@@H]1CN([C@H](C)CO)S(=O)(=O)c2ccc(C#Cc3ccccn3)cc2O[C@@H]1CN(C)C(=O)C1CC1
    -5[16.7 µM]	15
> C[C@@H]1CN([C@H](C)CO)C(=O)Cc2cc(NS(=O)(=O)c3ccc(F)cc3)ccc2O[C@@H]1CN(C)S(=O)(=O)c1ccccc1
    -13[16.7 µM]	7
> CC(C)c1cn(CC[C@@H]2CC[C@H](NC(=O)C3CCCC3)[C@@H](CO)O2)nn1
    -3[16.7 µM]	5
> C[C@@H]1CN([C@H](C)CO)C(=O)c2cc(NC(=O)Nc3cccc4ccccc34)ccc2O[C@@H]1CN(C)C
    14[16.7 µM]	-4
> COc1ccc(NC(=O)N[C@H]2CC[C@@H](CCNS(=O)(=O)c3cccc(Cl)c3)O[C@@H]2CO)cc1
    13[16.7 µM]	10
> COCC(=O)N(C)C[C@H]1Oc2ncc(C#Cc3ccc(OC)cc3)cc2C(=O)N([C@@H](C)CO)C[C@@H]1C
    1[16.7 µM]	9
> Cc1ccc(S(=O)(=O)Nc2ccc3c(c2)C(=O)N([C@H](C)CO)C[C@@H](C)[C@H](CN(C)C(=O)NC(C)C)O3)cc1
    1[16.7 µM]	-5
> C[C@H](NC(=O)C[C@@H]1C[C@H]2c3cc(NC(=O)NC4CCCC4)ccc3O[C@H]2[C@@H](CO)O1)c1ccccc1
    33[16.7 µM]	4
> O=C(C1=C[C@@H](c2ccc3c(c2)OCO3)C[C@@H](OCc2ccc(CO)cc2)O1)N1CCN(Cc2ccc3c(c2)OCO3)CC1
    -3&3[16.7 µM]	-13&2
> Cc1noc(C)c1NC(=O)N(C)C[C@@H]1OCCCC[C@@H](C)Oc2ccc(NC(=O)Nc3ccc(C(F)(F)F)cc3)cc2C(=O)N([C@@H](C)CO)C[C@H]1C
    13[16.7 µM]	-12
> CCC(=O)N(C)C[C@@H]1Oc2cc(-c3ccc(F)cc3)ccc2S(=O)(=O)N([C@H](C)CO)C[C@@H]1C
    -4[16.7 µM]	47
> Cc1noc(C)c1S(=O)(=O)N(C)C[C@H]1OCCCC[C@@H](C)Oc2ccc(NC(=O)Nc3ccc4c(c3)OCO4)cc2C(=O)N([C@H](C)CO)C[C@@H]1C
    -4[16.7 µM]	-13
> C[C@@H]1CN([C@H](C)CO)C(=O)c2cccc(NC(=O)Nc3ccc4c(c3)OCO4)c2O[C@@H]1CN(C)Cc1ccccc1
    -8[16.7 µM]	5
> C[C@H]1CCCCO[C@H](CN(C)C(=O)Nc2ccc3c(c2)OCO3)[C@@H](C)CN([C@@H](C)CO)C(=O)c2cc(NC(=O)c3ccncc3)ccc2O1
    1[16.7 µM]	0
> C/C=C/c1ccc([C@@H]2[C@@H](C#N)N(c3ncc(CC)s3)[C@H]2CO)cc1
    -3[16.7 µM]	9
> C[C@@H]1CN([C@H](C)CO)C(=O)c2cc(NC(=O)C3CCCCC3)ccc2O[C@@H](C)CCCCO[C@H]1CN(C)C(=O)NC1CCCCC1
    7[16.7 µM]	4
> C[C@H]1CN([C@@H](C)CO)C(=O)c2cccc(NS(=O)(=O)c3ccc(Cl)cc3)c2O[C@H]1CN(C)CC1CCCCC1
    -55[16.7 µM]	3
> C[C@H]1CN([C@@H](C)CO)C(=O)c2cc(NS(=O)(=O)c3ccccc3)ccc2O[C@H]1CN(C)S(=O)(=O)c1cn(C)cn1
    -12[16.7 µM]	-5
> C[C@H](CO)N1C[C@H](C)[C@@H](CN(C)Cc2ccc(Cl)c(Cl)c2)Oc2ccc(NC(=O)CCCN(C)C)cc2C1=O
    -1[16.7 µM]	-8
> C[C@@H]1CCCCO[C@@H](CN(C)C(=O)Nc2ccc(C(F)(F)F)cc2)[C@H](C)CN([C@H](C)CO)C(=O)c2cc(N(C)C)ccc2O1
    -35[16.7 µM]	-17
> COc1ccc(NC(=O)N(C)C[C@H]2OCCCC[C@H](C)Oc3ccc(NC(=O)c4ccncc4)cc3C(=O)N([C@@H](C)CO)C[C@H]2C)cc1
    -2[16.7 µM]	-6
> C[C@@H]1CN([C@H](C)CO)C(=O)Cc2cc(NS(=O)(=O)c3ccccc3)ccc2O[C@H]1CN(C)Cc1ccc(Cl)c(Cl)c1
    5[16.7 µM]	4
> COCC#Cc1cnc2c(c1)C(=O)N([C@H](C)CO)C[C@@H](C)[C@@H](CN(C)Cc1ccccc1F)O2
    14[16.7 µM]	14
> Cc1ccc(S(=O)(=O)N(C)C[C@H]2Oc3c(NS(C)(=O)=O)cccc3C(=O)N([C@H](C)CO)C[C@@H]2C)cc1
    1[16.7 µM]	0
> C[C@@H]1CN([C@H](C)CO)C(=O)c2cc(NC(=O)Nc3ccc4c(c3)OCO4)ccc2O[C@@H](C)CCCCO[C@H]1CN(C)Cc1ccc(C(F)(F)F)cc1
    49[16.7 µM]	11
> COc1ccc(NC(=O)Nc2ccc3c(c2)C(=O)N([C@H](C)CO)C[C@@H](C)[C@H](CN(C)C(=O)Nc2c(C)noc2C)OCCCC[C@@H](C)O3)cc1
    -5[16.7 µM]	-10
> C[C@@H]1CCCCO[C@@H](CN(C)Cc2ccncc2)[C@@H](C)CN([C@H](C)CO)C(=O)c2cc(NC(=O)Cc3ccccc3)ccc2O1
    18[16.7 µM]	11
> N#C[C@@H]1[C@@H](c2ccc(C#CCC3CCCC3)cc2)[C@H](CO)N1C(=O)c1ccccn1
    -14[16.7 µM]	4
> CCCN(C)C[C@H]1OCCCC[C@@H](C)Oc2ccc(NC(=O)C3CCCCC3)cc2C(=O)N([C@H](C)CO)C[C@@H]1C
    -11[16.7 µM]	5
> C[C@H]1CN([C@@H](C)CO)S(=O)(=O)c2ccc(C#CC(C)(C)O)cc2O[C@@H]1CN(C)Cc1ccncc1
    -29[16.7 µM]	-11
> N#C[C@@H]1[C@@H](c2ccc(-c3ccccc3F)cc2)[C@@H](CO)N1C(=O)Cc1ccccc1
    -1[16.7 µM]	-5
> COCC(=O)N(C)C[C@@H]1Oc2ncc(C#Cc3ccc(OC)cc3)cc2C(=O)N([C@@H](C)CO)C[C@H]1C
    11[16.7 µM]	17
> COc1ccc(S(=O)(=O)N(C)C[C@H]2OCCCC[C@@H](C)Oc3ccc(NS(=O)(=O)c4cccs4)cc3C(=O)N([C@H](C)CO)C[C@H]2C)cc1
    19[16.7 µM]	23
> C[C@@H]1CN([C@@H](C)CO)C(=O)c2cc(NS(=O)(=O)c3ccc(Cl)cc3)ccc2O[C@@H]1CN(C)CC1CCCCC1
    -23[16.7 µM]	4
> CO[C@@H]1CN(C)C(=O)c2cc(NS(=O)(=O)c3ccccc3)ccc2OC[C@@H](C)N(C(=O)NC(C)C)C[C@@H]1C
    4[16.7 µM]	7
> C[C@@H]1CCCCO[C@@H](CN(C)C(=O)CCCN(C)C)[C@H](C)CN([C@@H](C)CO)C(=O)c2cc(NS(=O)(=O)c3ccccc3)ccc2O1
    7[16.7 µM]	16
> C[C@@H]1CCCCO[C@@H](CN(C)Cc2ccccc2)[C@@H](C)CN([C@@H](C)CO)C(=O)c2cc(NS(=O)(=O)c3cccs3)ccc2O1
    -68[16.7 µM]	3
> C[C@H]1CN([C@@H](C)CO)C(=O)c2cccc(NC(=O)C3CCCCC3)c2O[C@@H]1CN(C)Cc1ccccc1
    -18[16.7 µM]	-5

COCC#Cc1ccc2c(c1)O[C@@H](CN(C)Cc1ccc(F)cc1)[C@H](C)CN([C@@H](C)CO)S2(=O)=O
  Env fusion inh: 5[16.7 µM]; UUG fidelity: 7

Cc1noc(C)c1S(=O)(=O)Nc1ccc2c(c1)C(=O)N([C@H](C)CO)C[C@@H](C)[C@@H](CN(C)S(=O)(=O)c1cn(C)cn1)OCCCC[C@@H](C)O2
  Env fusion inh: -3[16.7 µM]; UUG fidelity: -1

Cc1noc(C)c1S(=O)(=O)N(C)C[C@H]1OCCCC[C@H](C)Oc2ccc(NC(=O)Cc3ccccc3)cc2C(=O)N([C@@H](C)CO)C[C@@H]1C
  Env fusion inh: 19[16.7 µM]; UUG fidelity: 3

O=C(N[C@H]1C=C[C@@H](CC(=O)N2CCCCC2)O[C@@H]1CO)c1cccc(F)c1
  Env fusion inh: -14[16.7 µM]; UUG fidelity: -17

C[C@@H]1CCCCO[C@H](CN(C)C(=O)Cc2ccccc2)[C@@H](C)CN([C@@H](C)CO)C(=O)c2cc(NC(=O)Cc3ccccc3)ccc2O1
  Env fusion inh: -115[16.7 µM]; UUG fidelity: 5

CC(C)CC#Cc1ccc2c(c1)O[C@H](CN(C)C(=O)Cc1ccccn1)[C@H](C)CN([C@H](C)CO)S2(=O)=O
  Env fusion inh: -6[16.7 µM]; UUG fidelity: 6

CNC[C@H]1OCCCC[C@@H](C)Oc2ccc(NS(C)(=O)=O)cc2C(=O)N([C@H](C)CO)C[C@H]1C
  Env fusion inh: -1[16.7 µM]; UUG fidelity: 6

Cc1ccc(S(=O)(=O)N(C)C[C@@H]2Oc3ccc(NS(=O)(=O)c4c(C)noc4C)cc3CC(=O)N([C@@H](C)CO)C[C@@H]2C)cc1
  Env fusion inh: -5[16.7 µM]; UUG fidelity: 11

C[C@H]1CN([C@@H](C)CO)C(=O)c2cc(-c3ccc(F)cc3)cnc2O[C@H]1CN(C)C(=O)Cc1ccccc1
  Env fusion inh: 33[16.7 µM]; UUG fidelity: 19

COc1ccc(S(=O)(=O)Nc2ccc3c(c2)C(=O)N([C@H](C)CO)C[C@H](C)[C@H](CN(C)C(=O)c2ccncc2)OCCCC[C@H](C)O3)cc1
  Env fusion inh: -1[16.7 µM]; UUG fidelity: 2

C[C@H](CO)N1C[C@H](C)[C@@H](CN(C)S(=O)(=O)c2ccc(F)cc2)Oc2c(NC(=O)c3nc4ccccc4s3)cccc2C1=O
  Env fusion inh: 7[16.7 µM]; UUG fidelity: -7

C[C@H](CO)N1C[C@H](C)[C@@H](CN(C)Cc2ccncc2)Oc2c(NS(C)(=O)=O)cccc2C1=O
  Env fusion inh: -43&3[16.7 µM]; UUG fidelity: 21&-13

Cc1ccc(S(=O)(=O)N(C)C[C@@H]2OCCCC[C@H](C)Oc3ccc(NS(=O)(=O)c4cn(C)cn4)cc3C(=O)N([C@@H](C)CO)C[C@@H]2C)cc1
  Env fusion inh: -9[16.7 µM]; UUG fidelity: 0

C[C@@H]1CN([C@@H](C)CO)C(=O)Cc2cc(NC(=O)CCN3CCOCC3)ccc2O[C@H]1CN(C)C(=O)Nc1ccc(C(F)(F)F)cc1
  Env fusion inh: 4[16.7 µM]; UUG fidelity: 7

Cc1ccc(S(=O)(=O)N[C@H]2C=C[C@@H](CC(=O)NCc3ccncn3)O[C@H]2CO)cc1
  Env fusion inh: -37[16.7 µM]; UUG fidelity: -12

COc1ccccc1NC(=O)N1C[C@H](O)COC[C@@H]2O[C@H](CC(=O)N3CCC(Cc4ccccc4)CC3)CC[C@H]21
  Env fusion inh: 18[16.7 µM]; UUG fidelity: 0

C[C@@H]1CN([C@@H](C)CO)C(=O)c2cc(/C=C/c3ccccc3)cnc2O[C@H]1CN(C)C(=O)C1CCC1
  Env fusion inh: -13[16.7 µM]; UUG fidelity: -12

CCCC#Cc1ccc2c(c1)O[C@@H](CN(C)C(=O)c1ccncc1)[C@@H](C)CN([C@H](C)CO)S2(=O)=O
  Env fusion inh: 14[16.7 µM]; UUG fidelity: -7

Cc1ccc(S(=O)(=O)NCC[C@@H]2CC[C@H](NC(=O)Nc3cccc(F)c3)[C@H](CO)O2)cc1
  Env fusion inh: -15[16.7 µM]; UUG fidelity: 0

CC(C)CC#Cc1ccc2c(c1)O[C@@H](CN(C)C(=O)c1ccccn1)[C@@H](C)CN([C@@H](C)CO)S2(=O)=O
  Env fusion inh: 0[16.7 µM]; UUG fidelity: 1

CNC[C@@H]1Oc2c(NC(=O)c3cnccn3)cccc2C(=O)N([C@H](C)CO)C[C@H]1C
  Env fusion inh: 10[16.7 µM]; UUG fidelity: -5

O=C(C[C@H]1CC[C@@H]2[C@H](COC[C@@H](O)CN2Cc2ccc3c(c2)OCO3)O1)Nc1ccc(-c2ccccc2)cc1
  Env fusion inh: -3[16.7 µM]; UUG fidelity: 12

COCC(=O)N(C)C[C@@H]1Oc2cc(C3=CCCC3)ccc2S(=O)(=O)N([C@@H](C)CO)C[C@@H]1C
  Env fusion inh: 2[16.7 µM]; UUG fidelity: -13

C[C@H](CO)N1C[C@H](C)[C@@H](CN(C)Cc2ccc(Cl)c(Cl)c2)Oc2ccc(NC(=O)Nc3ccc(F)cc3)cc2CC1=O
  Env fusion inh: 13[16.7 µM]; UUG fidelity: 5

CC(C)NC(=O)N(C)C[C@H]1OCCCC[C@@H](C)Oc2ccc(NS(=O)(=O)c3cn(C)cn3)cc2C(=O)N([C@@H](C)CO)C[C@H]1C
  Env fusion inh: 12[16.7 µM]; UUG fidelity: 21
